Compound activity: PubChem, National Center for Advancing Translational Sciences (NCATS)
hNpr1 antagonist: Natriuretic polypeptide receptor (hNpr1) antagonism - Primary qHTS | Atrial natriuretic peptide receptor 1 (Homo sapiens), P16066 | HEK293 hNpr1 GloSensor cGMP, ANP-stimulated luminescence | Potency, µM (titrated, usually from 46.3 µM), for inactives: at the highest dose activity change, negative = inhibition, usual class: inhibitors | actives 1.6% (n = 76,000) | AID 1347048, 2019; active = well fitted inhibition curve with a large enough effect; inconclusive = small, poorly fitted or top-dose-only effect; inactive = no such curve, though single readings can be large or run the other way;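 also: nearly all actives have a fitted effect of over 60% in size; nearly all hits also lower the signal before the agonist is added; a reference antagonist and vehicle were the controls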
Target sequence (P16066 whole entry, looked up): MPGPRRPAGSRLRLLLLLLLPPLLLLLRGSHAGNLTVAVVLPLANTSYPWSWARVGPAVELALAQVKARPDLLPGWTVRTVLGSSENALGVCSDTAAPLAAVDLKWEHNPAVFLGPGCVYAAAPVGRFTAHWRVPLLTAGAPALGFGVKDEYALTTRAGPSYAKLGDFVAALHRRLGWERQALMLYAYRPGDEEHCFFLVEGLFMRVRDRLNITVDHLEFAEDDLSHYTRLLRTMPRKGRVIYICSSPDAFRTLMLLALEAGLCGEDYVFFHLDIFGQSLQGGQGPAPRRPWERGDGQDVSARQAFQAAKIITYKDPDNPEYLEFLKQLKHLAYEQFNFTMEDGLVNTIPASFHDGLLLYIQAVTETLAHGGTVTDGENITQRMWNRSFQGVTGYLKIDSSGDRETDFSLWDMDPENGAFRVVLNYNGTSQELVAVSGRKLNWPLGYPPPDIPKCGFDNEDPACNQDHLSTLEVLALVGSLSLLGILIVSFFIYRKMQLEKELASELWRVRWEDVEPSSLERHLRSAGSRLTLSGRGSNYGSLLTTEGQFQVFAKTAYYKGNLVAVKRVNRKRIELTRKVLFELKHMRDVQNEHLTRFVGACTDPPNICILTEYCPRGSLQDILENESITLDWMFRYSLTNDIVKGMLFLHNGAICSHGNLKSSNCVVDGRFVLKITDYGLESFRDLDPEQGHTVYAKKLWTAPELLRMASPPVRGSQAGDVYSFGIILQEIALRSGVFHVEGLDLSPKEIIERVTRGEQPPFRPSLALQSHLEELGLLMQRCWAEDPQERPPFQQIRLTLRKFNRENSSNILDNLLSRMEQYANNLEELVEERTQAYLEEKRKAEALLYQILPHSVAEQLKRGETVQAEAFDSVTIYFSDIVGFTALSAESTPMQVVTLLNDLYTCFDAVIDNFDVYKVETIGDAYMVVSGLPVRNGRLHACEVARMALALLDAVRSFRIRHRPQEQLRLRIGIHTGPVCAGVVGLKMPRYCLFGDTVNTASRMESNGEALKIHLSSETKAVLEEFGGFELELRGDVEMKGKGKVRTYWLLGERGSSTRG
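HEK293 cells stably expressing human Npr1 and cGMP GloSensor pGS-40F, loaded 2 h with 2% GloSensor reagent, given compound 30 min at room temperature. Luminescence read before and 20 min after 0.1 nM hNppA.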
Numbers without * were called inactive; ? = inconclusive; [ ] = dose if it differs, or a comment. % is scaled to controls: 0 for no effect and ±100 for the full control effect; potency is read from the fitted curve at half-maximal effect. Not all compounds are listed (hit frequency here may not be typical).

SMILES | hNpr1 antagonist
COc1ccc(CN2Cc3[nH]cnc3C[C@H]2c2nc(Cc3ccccc3)no2)cc1 | -6%[70.6 µM]
CC1=C(C(=O)OC(C)C)C(c2ccccc2C)N2C(CC(=O)NCC3CC3)=CSC2=N1 (stereo unspecified) | ?
CC(C)(C)c1ccc(C(=O)Nc2ccc(C(O)[C@H]3COCC(=O)N3)cc2)cc1 (stereo partly specified) | -4%[70.6 µM]
O=C(Cc1ccccc1)N1CCC(O)(c2csc(CN3CCc4ccccc4C3)n2)CC1 | ?
O=C(c1ccn[nH]1)N1CCCCC1c1noc(COc2ccc(F)cc2)n1 (stereo unspecified) | -22%
COc1ccc(C(=O)N2C[C@@H](Oc3ccccc3)C[C@H]2C(=O)N2CCOCC2)c(OC)c1 | -1%
COc1ccc(CNC(=O)[C@@H](C)C2CC[C@@]3(C)CC[C@H](NC(=O)COc4ccccc4)[C@@H](C)[C@@H]3[C@H]2O)cc1 (stereo partly specified) | ?
COc1ccc(NC(=O)Cn2c(C)cc3nc4n(c(=O)c32)CCCC4)cc1 | 1%
Cc1[nH]cnc1CN1CCC(c2nnc(CN3CCCCC3)n2C)CC1 | 2%
Cc1cc(C)c(C(=O)N2CCCC(CCc3ccccc3C)C2)c(=O)[nH]1 (stereo unspecified) | -1%
COC[C@@H]1CN(C(=O)c2ccco2)C[C@H]1c1ccccn1 | 1%
CNC(=O)[C@@H]1C[C@H](Oc2ccccc2)CN1C(=O)c1ccc(C)nc1 | 1%
CCOC(=O)c1cccc(NC(=O)N2CC[C@@H](CC(=O)N3CCOCC3)[C@@H](CC)C2)c1 | -2%[70.6 µM]
CCN(CCO)C[C@@H]1CN(c2nccc(N)n2)C[C@@H]1CO | 1%
CC(C)c1noc(C2CCCN(C(=O)Cc3cccc(F)c3)CCC(=O)NCC2)n1 (stereo unspecified) | 4%
CC1=C(C(=O)OC(C)C)C(c2ccc([N+](=O)[O-])cc2)N2C(CC(=O)N3CCCC3)=CSC2=N1 (stereo unspecified) | ?
CCn1nc(C)c(C(C)NCc2cccc(OC)c2OCCN2CCOCC2)c1C (stereo unspecified) | -1%
NC1CCc2nn(CC(=O)N(Cc3cccs3)C3CCCC3)c(=O)n2CC1 (stereo unspecified) | 3%
CCC(C)(C)C(=O)NCc1cc2c(nc1OC)CN(C1CCCC1)C2=O | 0%
O=C(c1ccoc1)N1CC(F)(F)C[C@H]1c1nc(-c2ccncc2)no1 | 13%
O=C(O)C[C@@H]1CCN(C(=O)c2ccco2)C[C@@H]1CC1=NCCc2ccccc21 | 5%[70.6 µM]
CCCNC(=O)Cc1csc2nc(C)c(-c3cc(C)n(-c4ccccc4CC)n3)c(=O)n12 | -8%
COCCNC(=O)[C@@H]1C[C@H](Oc2ccccc2)CN1C(=O)c1ccccn1 | 4%
CCN1CCC(N2C[C@@H](CO)[C@H](c3nc(C)no3)C2)CC1 | -1%
COc1cc(C(=O)N2[C@@H]3CC[C@H]2CC(NC(=O)c2ccncc2)C3)cc(OC)c1OC (stereo partly specified) | 3%

4 of the compounds above, field by field:
COc1cc(C(=O)N2[C@@H]3CC[C@H]2CC(NC(=O)c2ccncc2)C3)cc(OC)c1OC (stereo partly specified)
  hNpr1 antagonist = 3%
CC1=C(C(=O)OC(C)C)C(c2ccccc2C)N2C(CC(=O)NCC3CC3)=CSC2=N1 (stereo unspecified)
  hNpr1 antagonist = ?
COCCNC(=O)[C@@H]1C[C@H](Oc2ccccc2)CN1C(=O)c1ccccn1
  hNpr1 antagonist = 4%
CC1=C(C(=O)OC(C)C)C(c2ccc([N+](=O)[O-])cc2)N2C(CC(=O)N3CCCC3)=CSC2=N1 (stereo unspecified)
  hNpr1 antagonist = ?

The listing continues.
SMILES | hNpr1 antagonist
CC1=C(C(=O)OC(C)C)C(c2ccccc2Cl)N2C(CC(=O)N3CCCC3)=CSC2=N1 (stereo unspecified) | 13µM*
Cc1ncsc1CN1C(=O)CO[C@H](c2ccc(NC(=O)c3ccccc3)cc2)[C@H]1CO | -5%
CCc1ccc(N2CC(c3noc(-c4ccc(C)nc4)n3)CC2=O)cc1 (stereo unspecified) | -12%
COc1ccc(C(=O)N[C@@H]2CCC[C@@H]2C(=O)NCCCn2cccn2)cn1 | -4%
OCC1(CN2CCCC2)CCN(Cc2ccc(Cl)cc2)CC1 | 2%
Cc1nc(CN2CCN(c3cc(C4CC(O)C4)nc(N)n3)CC2)cs1 (stereo unspecified) | 9%
NC(=O)NCCC(=O)N1CCc2onc(C(c3ccccc3)c3ccccc3)c2C1 | 3%
COc1ccc(C(=O)NCCc2noc(-c3cccnc3)n2)cn1 | 0%
COc1ccc(C)cc1NC(=O)C1CC(=O)N(c2n[nH]c3cc(Br)ccc23)C1 (stereo unspecified) | -19%
CCOCCCNC(=O)[C@H]1CCC[C@H]1NC(=O)c1ccncc1 | 0%
COc1ccc(NC(=O)Cn2c(N3CCc4ccccc4C3)nc(C)cc2=O)cc1Cl | -6%
Cc1cccc(C(=O)N2CCC(N3C(=O)C4(CCCCC4)C3c3ccncc3)CC2)c1 (stereo unspecified) | 1%
CC(C)CCNC(=O)c1cnc2c(c1)N([S+](=O)([O-])c1cccnc1)CCC2 | 0%[70.6 µM]
COc1ccc(CNC(=O)[C@H]2CCC[C@H]2NC(=O)c2ccc(OC)cc2)cc1 | 6%
CCOc1cc(=O)n2c(c1C(=O)N1CCN(c3ccc(F)cc3)CC1)CCCCC2 | 14%
Cc1cc(F)ccc1NC(=O)c1cnc(-c2ccc(F)cc2)nc1-c1ccncc1 | -24%
COc1cc(OC)cc(C(=O)N2CCCC(n3cc(-c4nc(C(C)C)no4)nn3)C2)c1 (stereo unspecified) | -12%
COC(=O)c1ccccc1NC(=O)N1CCC[C@@H](O)[C@H](NC(=O)c2ccc(OCc3c(C)noc3C)cc2)C1 | -4%
CC(=O)N1CCC(N2CC[C@@H](CO)N(C)c3ncccc3C2)CC1 | 6%[70.6 µM]
Cc1c(CN2CC(Oc3ccccc3C(=O)NCc3ccccc3)C2)cnn1C | -12%
COc1cccc(CC2(CO)CCCN(C(=O)c3cn4ccsc4n3)C2)c1 (stereo unspecified) | 2%
O=C(O)Cn1ccc2cc(OCC3CCN(C(=O)CCC(F)(F)F)CC3)cnc21 | -9%[70.6 µM]
O=C1CN(Cc2ccc(-c3cnc4c(OCc5ccccc5)nccn34)cc2)CCN1 | ?
COc1ccccc1N1CCN([C@@H]2[C@H](O)[C@H](CO)O[C@@H]2CNC(=O)c2ccccc2)CC1 | 1%
O=C(NCc1cc2n(n1)CCCN(C1CCCCC1)C2)c1cccc(F)c1 | -6%

3 structures already listed, sorted by SMILES length, low to high.
SMILES | hNpr1 antagonist
Cc1cc(F)ccc1NC(=O)c1cnc(-c2ccc(F)cc2)nc1-c1ccncc1 | -24%
COc1ccc(NC(=O)Cn2c(N3CCc4ccccc4C3)nc(C)cc2=O)cc1Cl | -6%
Cc1cccc(C(=O)N2CCC(N3C(=O)C4(CCCCC4)C3c3ccncc3)CC2)c1 (stereo unspecified) | 1%

The list continues.
SMILES | hNpr1 antagonist
COc1cccc(CC(=O)N2CC(c3noc(C4CCCN4C)n3)C2)c1 (stereo unspecified) | 7%
CC(C)c1nncn1C1CCN(S(=O)(=O)Cc2ccccc2F)CC1 | -5%
O=[S+]1([O-])NC2(CCN(CC3CCCCC3)CC2)CNc2ccccc21 | 0%
O=C(NC1CC1)c1ccccc1OC1CN(Cc2ccc(F)cc2Cl)C1 | -13%
N#Cc1ccc(C(=O)Nc2ccc3n(c2=O)C[C@H]2C[C@@H]3CN(C(=O)c3ccccn3)C2)cc1 | 0%
CCc1noc(-c2ccn3c(CNC(=O)c4ccccc4C)nnc3c2)n1 | 1%
O=C1CC2(CCN(Cc3ccccc3)CC2)Oc2ccccc2N1c1ccccc1 | 3%
CCCS(=O)(=O)N1CCC(c2noc(COc3ccc(C)cc3)n2)CC1 | -24%
Cc1cc(Cl)ccc1-n1nc(C)c([C@@H]2C=C[C@@H](NC(=O)CCCC(=O)O)C2)c1C | -2%[70.6 µM]
Cn1cnc(S(=O)(=O)N2CC(c3nc(-c4ccncc4)no3)C2)c1 | -1%
O=c1n(CC2CC2)nc2n1CCC(NS(=O)(=O)c1cccs1)CC2 (stereo unspecified) | -4%
Cc1nn(Cc2ccccc2)c(C)c1[C@@H]1C=C[C@@H](NC(=O)c2ccc3c(c2)OCO3)C1 | 32µM*
O=C(NC[C@H]1COCc2nc3cccnc3n21)c1ccc(Cl)cc1 | 0%[70.6 µM]
COCC(=O)Nc1ccc([C@H]2OCC(=O)N(C3CCOCC3)[C@@H]2CO)cc1 | 2%[70.6 µM]
CCn1cc(C(=O)N2CCc3nc(NC)nc(C(=O)N4CCCC4)c3C2)c(C)n1 | 4%
O=C(NCCc1cccc(F)c1)C1CCCN(C2CCN(C(=O)C3CC3)CC2)C1 (stereo unspecified) | -1%
N#Cc1cccc(C2CCN(c3cc(C4CC4)ncn3)CC2)c1 | ?
Cc1ccc(C2=NC3(CCN(C(=O)c4n[nH]c5c4CCCC5)CC3)ON2)cc1 | -29%
COc1cc2c(cc1OC)C(CNC(=O)Cc1ccccc1)N(C(=O)Nc1ccccc1F)CC2 (stereo unspecified) | -10%
Cc1cc(C(=O)NC2CCCc3c2[nH]c2c(Cl)cccc32)c2c(C)noc2n1 (stereo unspecified) | 1%
Cn1ncc(N2CCOC(CCNC(=O)c3cccnn3)C2)cc1=O (stereo unspecified) | -2%
COc1cccc(C(=O)NCc2nnc3c(-c4nc(C(C)C)no4)cccn23)c1 | 1%
Cc1cccc(=O)n1CCC(=O)N1CCn2nc(C(O)C3CC3)cc2C1 (stereo unspecified) | -1%
CN(C)C[C@@H]1CN(Cc2ccccn2)C[C@H]1NS(=O)(=O)Cc1ccccc1 | 2%
O=C(c1ccsc1)N1CCCC(c2nc(C3CCOCC3)no2)C1 (stereo unspecified) | 1%
Next results
SMILES | hNpr1 antagonist
COc1cccc(NC(=O)N[C@H]2CCN(C(=O)CSC)[C@@H]2C(=O)N[C@@H](CCCNC(=O)CSC)C(N)=O)c1 | 2%
COc1ccc(NC(=O)Cn2cccc2-c2nc(-c3ccccc3)no2)cc1OC | 5%
CC1(c2ccccc2)N(Cc2ccccc2)C(=O)OC12CCN(C(=O)Cc1ccc(O)cc1)CC2 (stereo unspecified) | -17%
Cc1nc(-c2ccccc2)n(CC(=O)Nc2ccccc2)c(=O)c1CCO | 1%
Cc1nn(C)c(C)c1CCC(=O)N1CCC(C2CCN(S(C)(=O)=O)CC2)C1 (stereo unspecified) | 3%
O=C(c1cc(Cl)ccc1F)N1CCN(c2cc(-c3cccs3)[nH]n2)CC1 | ?
NC(=O)[C@@H](Cc1ccccc1)NC(=O)C1=C[C@@H](NC(=O)c2ccco2)[C@@H](O)[C@H](O)C1 | 7%[70.6 µM]
CN(Cc1ccc(-n2cccn2)cc1)C(=O)CCn1nnnc1CN1CCOCC1 | 3%
O=C(C[C@H]1NC(=O)c2ccccc2NC1=O)Nc1nc2c(s1)CCC2 | 0%
CNC(=O)[C@@H]1CN(C(=O)c2cc3cc(OC)ccc3[nH]2)C[C@H]1CO | -22%
O=C(NCCCn1ccnc1)c1ccc(-c2ncc3cnc(-c4cccc(F)c4)cn23)cc1 | 3%
Cc1noc(C2CC3(CCN(C(=O)c4cc5ccccc5[nH]4)CC3)CN2C)n1 (stereo unspecified) | -13%
Cc1ccc(NC(=O)Cn2c(-c3ccccc3)nc(C)cc2=O)cc1 | -18%
Cc1ccc(-c2nnc(C3CN(C(=O)c4cc(C)cc(C)c4)CC34CCOCC4)o2)cc1 (stereo unspecified) | -3%
COc1ccc2c(C)c(C(=O)N3CCOC(c4ccc(F)cc4)C3)oc2c1 (stereo unspecified) | -14%
Cc1nc(CN2C(=O)OC3(CCN(C(=O)c4ccnn4C)CC3)C2(C)c2ccccc2)cs1 (stereo unspecified) | 0%
O=C1NC2(CN(C(=O)c3ccc4c(c3)OCO4)C2)Oc2ccccc21 | 0%
CCc1ccc(C(=O)N2C[C@@H](COC)[C@H](c3nc(C)no3)C2)cc1 | 0%
O=c1cc(-c2cccnc2)oc2c(NCc3ccc(F)cc3)nccc12 | -5%[70.6 µM]
O=C(Cn1cccc1-c1nc(-c2ccc(F)cc2)no1)N1CCN(c2ccc(F)cc2)CC1 | -2%
CN(CC1CCOCC1)S(=O)(=O)c1ccccc1Cl | 0%
Cc1ccc([S+](=O)([O-])NC[C@@H]2CC[C@H]3C[C@@H]2C3(C)C)cc1 | ?
Cc1cc(C)n(-c2cccc(CN(C)C(=O)C3CCC(=O)N(C4CCCC4)C3)c2)n1 (stereo unspecified) | -6%
CN1c2cc(C(=O)Nc3cccc(OC(F)(F)F)c3)ccc2C(=O)N2CCCCCC21 (stereo unspecified) | -25%
CCNC(=O)c1cccnc1OC1CCN(C(=O)c2cccc(OC)c2)C1 (stereo unspecified) | -3%
CCCCCC(=O)Nc1nc2c(s1)C[C@@H]1[C@](C)(CO)[C@H](O)CC[C@@]1(C)[C@@H]2CC(=O)NC1CCCC1 | -3%
O=C(NCCn1ccnc1-c1cc2n(n1)CCNC2)c1ccncc1 | 1%
O=C(NCc1ccccc1)[C@@H]1Cc2nc[nH]c2CN1Cc1cccc(OC(F)(F)F)c1 | -16%[70.6 µM]

Structures listed so far shown as hits in hNpr1 antagonist:
SMILES | hNpr1 antagonist
CC1=C(C(=O)OC(C)C)C(c2ccccc2Cl)N2C(CC(=O)N3CCCC3)=CSC2=N1 (stereo unspecified) | 13µM*
Cc1nn(Cc2ccccc2)c(C)c1[C@@H]1C=C[C@@H](NC(=O)c2ccc3c(c2)OCO3)C1 | 32µM*
